HSD17B inh = HSD17B dehydrogenase inhibition; Q99714; recombinant HSD17B10, NADH fluorescence kinetic; many of its hits are not listed in these tables; Potency, µM (titrated, usually from 57.1 µM), inactives show top-dose activity change, negative = inhibition, usual class: inhibitors; 7.6% of 75,000 active; AID 893; active = well fitted inhibition curve with a large enough effect; inconclusive = small, poorly fitted or top-dose-only effect; inactive = no such curve, though single readings can be large or run the other way;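 also: the protocol describes HADH2 (HSD17B10) and not the HSD17B4 of the title; nearly all actives have a fitted effect of over 70% in size; most hits overshoot -100% by far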
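His-tagged E. coli-expressed HADH2 at 20 nM in 100 mM Tris-HCl pH 9.0 with 0.01 % Tween-20, preincubated 15 min with compound at room temperature. Reaction with 1 mM NAD+ and 90 uM beta-hydroxybutyryl coenzyme A; NADH fluorescence (360/450 nm) read kinetically over 4 min, last minus first point.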
The depositor's hits bear a star; ? = inconclusive; [ ] = dose if it differs, or a comment. % is scaled to controls: 0 for no effect and ±100 for the full control effect; potency is read from the fitted curve at half-maximal effect.

SMILES	HSD17B inh
CCN(CC)C(c1ccc(F)cc1)c1nnnn1C1CCCCC1 (stereo not drawn)	-3%
Cc1ccc(N2CC(C(=O)NC3CCSC3=O)CC2=O)cc1 (stereo not drawn)	10%
COc1cccc(-c2nc(CS(=O)(=O)CC(=O)Nc3cccc(C)c3C)c(C)o2)c1	-8%
CCCN1C(=O)C(O)(CC(=O)c2ccc3c(c2)OCCO3)c2ccccc21 (stereo not drawn)	-6%
CC(C)N(Cc1nc(-c2ccc(Cl)cc2)no1)C(=O)C12CC3CC(CC(C3)C1)C2	9%
Cc1ccc(CNC(=O)CCCOc2cc(=O)n(C)c3ccccc23)o1	-9%
CC(NC(=O)C1CC=CCC1C(=O)O)C1CC2CCC1C2 (stereo not drawn)	9%
CCn1c(SCC(=O)N2CCCC2)nc2c1c(=O)n(C)c(=O)n2C	2%
Cc1ccc(SCCN2C(=O)NC(C)(C)C2=O)cc1	6%
CC1CCN(S(=O)(=O)c2cccc(-c3nnc(-c4cccnc4)o3)c2)CC1	0%
Cn1c(NCc2c[nH]c3ccccc23)nc2ccccc21	-4%
c1ccc2c(c1)CCN(c1nc3cc4c(cc3s1)OCCO4)C2	32µM*

Of the compounds above, these contain sulfur:
SMILES	HSD17B inh
Cc1ccc(N2CC(C(=O)NC3CCSC3=O)CC2=O)cc1 (stereo not drawn)	10%
COc1cccc(-c2nc(CS(=O)(=O)CC(=O)Nc3cccc(C)c3C)c(C)o2)c1	-8%
CCn1c(SCC(=O)N2CCCC2)nc2c1c(=O)n(C)c(=O)n2C	2%
Cc1ccc(SCCN2C(=O)NC(C)(C)C2=O)cc1	6%
CC1CCN(S(=O)(=O)c2cccc(-c3nnc(-c4cccnc4)o3)c2)CC1	0%
c1ccc2c(c1)CCN(c1nc3cc4c(cc3s1)OCCO4)C2	32µM*

Back to the main list; the 2 compounds before the break are reprinted first.
SMILES	HSD17B inh
Cn1c(NCc2c[nH]c3ccccc23)nc2ccccc21	-4%
c1ccc2c(c1)CCN(c1nc3cc4c(cc3s1)OCCO4)C2	32µM*
CC1=C(C(=O)OC(C)C)C(c2cccs2)n2ncnc2N1 (stereo not drawn)	4%
O=C1CC(c2ccc(F)cc2)Cc2nc(NCc3ccco3)ncc21 (stereo not drawn)	1%
O=C(Cn1nnc2ccccc2c1=O)NCc1ccco1	1%
COc1ccc2[nH]cc(CCNc3ccnc(-c4ccccc4Cl)n3)c2c1	5%
O=C(CCN1CCOCC1)Nc1ccc2c(c1)N(C(=O)CN1CCOCC1)c1ccccc1CC2	2%
O=C(O)C1CCCCC1C(=O)NCc1ccc(F)cc1 (stereo not drawn)	-1%
COc1cc(NC(=O)c2ccco2)c(OC)cc1NC(=O)CSc1ncc(-c2ccc(F)cc2)[nH]1	32µM*
C[C@@H]1O[C@H]2C3=C(C(=O)[C@H]4O[C@@H]4[C@H]3O)[C@@H]1[C@@H]1[C@@H](C)OC=C3[C@H](O)[C@H]4O[C@@H]4/C(=N\OCc4ccccc4)[C@]312	-1%[11.4 µM]
Nc1nc(-c2c[nH]c3ccccc23)cs1	?
COc1cccc(/C=N/n2cnnc2)c1OCc1ccccc1	-7%
CNc1nnc(-c2cccc(N(C)C)c2)s1	32µM*
CCOC(=O)Cc1nn2c(=O)cc(C)nc2s1	4%
C[N+]1(C)CCCC(OC(=O)C(O)(c2ccccc2)c2ccccc2)C1 (stereo not drawn)	7%
CCC(=O)N1CCN(CCN=Cc2c(O)n(C3CCCCC3)c(=O)n(C3CCCCC3)c2=O)CC1	0%
O=C(CCc1nc(-c2ccccc2F)no1)NCc1ccco1	10%
O=C(CCN1CCN(C(=O)c2ccco2)CC1)Nc1ccc(F)cc1	3%
CCCCn1cnc2c(SC)ncnc21	11%[11.4 µM]
CCOC(=O)c1cc2sc(C)cc2n1C(C)C(=O)OCC (stereo not drawn)	-8%
Cc1ccccc1Cn1nc(C)c(NC(=O)c2cc3n(n2)C(C(F)F)CC(C(F)F)N3)c1C (stereo not drawn)	-8%
O=C(CSc1nnc(Cc2cc(=O)[nH]c(=O)[nH]2)n1-c1ccccc1)N1CCCc2ccccc21	8%
CCCCS(=O)(=O)NC1=NCN(CCO)CN1	6%
O=C(Nc1ccccc1C(=O)N1CCN(Cc2ccccc2)CC1)c1ccccn1	5%
CC(C)[C@@H]1NC(=O)N(c2ccc(Oc3ccccc3)cc2)C1=O	8%
COc1ccc(OCC2Cc3c(-c4ccccc4)nc4c(c3CO2)CN(CCOc2ccccc2)CC4)cc1 (stereo not drawn)	1%[11.4 µM]
COc1ccccc1C(=O)NC(C)c1nc2ccccc2[nH]1 (stereo not drawn)	6%
O=C(C1CCC(CNc2nc(=S)[nH]c3ccccc23)CC1)N1CCN(c2ccccn2)CC1 (stereo not drawn)	3%
C=CCSc1nnc(-c2ccncc2)n1-c1ccc(OCC)cc1	-1%
COc1ccc(C(C(=O)NC2CCCC2)N(CCN(C)C)C(=O)c2snc(C(N)=O)c2N)cc1 (stereo not drawn)	?
O=C1OCc2cc(NC(=O)C3CCCCC3)ccc21	1%
C=CCN(CC=C)S(=O)(=O)c1ccc2nsnc2c1	-9%
Cc1cccc(Cn2c(SCCN3CCOCC3)nc3c2c(=O)n(C)c(=O)n3C)c1	-3%
COc1cc(CN2CCC(C(=O)NC3CCCC3)CC2)cc(Br)c1O	3%
N#CCCn1cnc2ccccc21	-3%
O=C(CCC(=O)c1cccs1)OCC(=O)N1CCN(S(=O)(=O)c2ccccc2)CC1	1%
COc1ccc(OC)c2[nH]c(=O)c(CCNC(=O)C3CCCCC3)cc12	1%
O=C1CC(Nc2ccc(N3CCOCC3)cc2)C(=O)N1c1ccccc1F (stereo not drawn)	5%
Cc1ccc(S(=O)(=O)N(C)c2ccc(C(=O)N3CCC(C(N)=O)CC3)cc2)cc1	16%
CCCCCCn1c(C(C)NC(=O)c2ccco2)nc2ccccc21 (stereo not drawn)	-4%
C=CCn1c(=N)n(CC(=O)O)c2ccccc21	1%
CCOc1ccc(C(=O)O)cc1OC	-1%
CN1CCN(C(=O)c2ccccc2-c2nc(-c3ccccc3)no2)CC1	2%
CCCOc1cccc(C(=O)Nc2cccnc2)c1	-2%
CCOC(=O)N1CCN(C(=O)Cn2nc(-c3ccc(Cl)cc3)ccc2=O)CC1	-24%
O=C(NCN1CCN(c2ccccc2F)CC1)c1ccccc1	-2%
COc1cccc(C2N(c3cccc(Cl)c3)C(=O)C3CCCN32)c1OC (stereo not drawn)	6%
COCCOC(=O)c1ccccc1C(=O)OCCOC	1%
CCOc1ccccc1-n1nnnc1SCC(=O)NC(=O)NCc1ccco1	?
CCN1CCN(c2nc3c(c(=O)n(C)c(=O)n3C)n2Cc2cccc3ccccc23)CC1	4%
CCC(=O)N(Cc1cc2cc(C)c(C)cc2[nH]c1=O)C1CCCCC1	32µM*
Cc1cc(C)n(C(=O)C2CCCN2S(=O)(=O)c2ccc(Cl)cc2)n1 (stereo not drawn)	-7%
O=C(O)c1nn(-c2ccccc2-c2n[nH]c(=O)[nH]c2=O)c(=O)[nH]c1=O	3%[11.4 µM]
CCCS(=O)(=O)N1CCC(C(=O)NCCCOC)CC1	-2%
CCOC(=O)c1sc(C)nc1C1CCN(C(=O)OCC)CC1	-11%
O=C(OCc1nnc(-c2ccccc2)o1)c1ccc2c(c1)C(=O)N(CCc1ccccc1)C2=O	9%
Cc1ccc(C)c(N2CCN(c3cc(C)nc4nnnn34)CC2)c1	-4%
CC(=O)NC(C)C12CC3CC(CC(C(=O)O)(C3)C1)C2 (stereo not drawn)	-2%
Cc1c(NC(=O)CSc2nnc(-c3ccco3)n2-c2ccccc2)c(=O)n(-c2ccccc2)n1C	7%
CCc1ccc(Cn2nnc(C(=O)Nc3ccc(OC)cc3OC)c2N)cc1	32µM*
Cc1ccc(C)c(N(C)C(=O)COc2cc(=O)n(C)c3ccccc23)c1	0%
O=C(CN(Cc1ccccc1C(F)(F)F)C(=O)CNC(=O)c1ccco1)NC1CCCC1	7%

Going on with the list.
SMILES	HSD17B inh
COc1ccccc1N1CCN(c2nc3ccccc3nc2C(C#N)C(=O)OC(C)C)CC1 (stereo not drawn)	-1%
O=C(Nc1nncs1)c1ccccc1Br	8%
CCOC(=O)c1c(C)nc2cc(C)ccn12	7%
Cc1ccc2nc3sc(C(=O)N4CCOCC4)c(N)c3cc2c1	-7%
CC(=O)N1CCN(Cc2ccc(Br)s2)CC1	5%
COc1ccc(C2C3=C(N=C4SCC(=O)N42)c2ccccc2CC3)cc1 (stereo not drawn)	-25%
O=C1CC(N2CCN(c3ccc(C(=O)c4ccc(F)cc4)cc3)CC2)C(=O)N1 (stereo not drawn)	-13%
COCC(N)(c1ccccc1)c1nc2ccccc2n1C (stereo not drawn)	11%
C[C@@H]1c2ccccc2Cn2cc3c(c21)C(=O)c1cccc(OP(=O)(O)OCc2ccccc2)c1C3=O	?
Cc1ccc(C2=C(Cl)C(=O)C(c3ccc(C)cc3)=C(Cl)C2=O)cc1	-22%[11.4 µM]
Cc1ccc(NC(=O)c2ccc(NS(=O)(=O)c3c(C)noc3C)cc2)cc1C	8%
CC(O)COC(C)(C)C (stereo not drawn)	-9%

Part of the list above, as labelled records:
SMILES: O=C(CSc1nnc(Cc2cc(=O)[nH]c(=O)[nH]2)n1-c1ccccc1)N1CCCc2ccccc21
- HSD17B inh: 8%

SMILES: Cc1ccc(C2=C(Cl)C(=O)C(c3ccc(C)cc3)=C(Cl)C2=O)cc1
- HSD17B inh: -22%[11.4 µM]

SMILES: O=C(Nc1nncs1)c1ccccc1Br
- HSD17B inh: 8%

SMILES: C[C@@H]1c2ccccc2Cn2cc3c(c21)C(=O)c1cccc(OP(=O)(O)OCc2ccccc2)c1C3=O
- HSD17B inh: ?

Remaining list, next part:
SMILES	HSD17B inh
COc1ccccc1Nc1ncc(C(=O)N2CCC(C(N)=O)CC2)c2ccccc12	-5%
O=C(CCCCC(=O)NCc1cccs1)NCc1cccs1	3%
O=C(CCCCn1c(=S)[nH]c2ccsc2c1=O)NCc1ccco1	0%
COCCn1c(SCC(=O)Nc2ccc3c(c2)OCCO3)nnc1-c1c[nH]c2ccccc12	-3%
O=C(/C=C/Nc1cccc(O)c1)c1ccccc1	?
CCC1(C)NC(=O)N(CC(=O)Nc2sc3c(c2C(N)=O)CCC3)C1=O (stereo not drawn)	?
C[C@@H]1C(=O)O[C@H]2[C@@H](O)[C@@]34[C@H]5CC(C(C)(C)C)[C@]36[C@@H](OC(=O)[C@@H]6O)O[C@@]4(C(=O)O5)[C@@]12O (stereo partly drawn)	15%
O=C1NC(Cc2c[nH]c3ccccc23)C(=O)N1CCOc1ccc(F)cc1 (stereo not drawn)	-3%
COc1ccc(-n2c(Cc3cccn3C)nnc2SCC(N)=O)cc1	15%
O=C(Nc1nc2ccccc2n1CCOc1ccccc1)c1ccco1	-9%
Cc1ccc(S(=O)(=O)NC(=O)N2CCCC(C)(C)C2)cc1	6%
CS(=O)(=O)c1ccc2nc(NC(=O)CN3CCN(Cc4ccccc4)CC3)sc2c1	-8%
O=C(NC1CCCCCC1)c1c(O)c2cccc3c2n(c1=O)CCC3	11%
CC(C)(SCc1ccccc1)[C@H](N)C(=O)O	11%[11.4 µM]
c1ccc(-n2c(SCc3nc(-c4cccs4)no3)nnc2-c2ccco2)cc1	-2%
CCn1c(SCC(N)=O)nnc1-c1ccco1	1%
Cc1cc(C(=O)Nn2cnnc2)cs1	-11%
COc1ccc(-c2nnc(SC(C)C#N)o2)cc1 (stereo not drawn)	4%
Cc1ccccc1N(CC(=O)NCCSCc1ccco1)S(C)(=O)=O	-20%
COc1ccc2nc(NC(=O)CSc3nnnn3C3CCCCC3)sc2c1	0%
CCCc1nc(SCc2cccnc2)c2c(=O)n(C)c(=O)n(C)c2n1	-11%
CC(C)(C)C(=O)[C@H]([C@@H](c1ccccc1)N1CCOCC1)N1CCOCC1	0%[11.4 µM]
COc1ccc(C(CCc2ccc(C)o2)NC(=O)Nc2ccc(OC)cc2OC)cc1 (stereo not drawn)	-10%
CCOC(=O)c1ccc(NC(=O)c2nn(CC)cc2Br)cc1	-1%
CC1(C)CC(=O)c2cnc(NC(=O)CCc3ccccc3)nc2C1	-3%
COc1cccc(N2CCN(C(=O)c3ccc4nc(N5CCCCC5)sc4c3)CC2)c1	-6%
COC(=O)c1ccc(C(C(=O)NCc2ccccc2)N(Cc2ccco2)C(=O)c2cnccn2)cc1 (stereo not drawn)	6%
CC(=O)Oc1cccc(/C=c2\sc3nc(-c4ccco4)nn3c2=O)c1	-28%
O=C1c2oc3ccc(Br)cc3c(=O)c2C(c2cccnc2)N1Cc1ccco1 (stereo not drawn)	7%
CCC1=C(OC(=O)N(CC)CC)N2C(=O)OC(=NCCc3c[nH]c4ccccc34)[C@]2(Cc2ccccc2)[C@H]2C1=CC[C@H]1C(=O)N(C)C(=O)[C@H]12	-1%
COc1ccc(Nc2cc(C)nc3nc(C)nn23)c(OC)c1	6%
COc1ccc(CNC2=CC(=O)CC(C)(C)C2)cc1	17%
CCOC(=O)C1=C(C)N=C(/N=C/N(C)C)SC1c1ccccc1 (stereo not drawn)	-29%
CC(=O)c1c(C)[nH]c(C(=O)NCCc2ccccc2)c1C	4%
Cc1cc(N)c2ccccc2[n+]1CCCCCCCCCC[n+]1c(C)cc(N)c2ccccc21	32µM*
COc1ccccc1N1CCN(C(=O)c2ccc(Br)s2)CC1	1%
O=C(CSCC(=O)OCn1nnc2ccccc2c1=O)Nc1ccc(Cl)cc1	-14%
COC(=O)c1ccc(C2NC(=O)NC(C)=C2C(=O)N(C)C)cc1 (stereo not drawn)	0%
CC1CCN(C(=O)CN(CCc2ccccc2)S(C)(=O)=O)CC1	1%
Cc1cnc(C(=O)OCC(=O)Nc2cccc(Cl)c2)cn1	9%

This is a subset, so the mix of outcomes need not match the whole.
